Bioassay records: PubChem BioAssay, Southern Research Specialized Biocontainment Screening Center
quorum sensing: Vibrio cholerae quorum sensing activators, luminescence (AID 686977). V. cholerae quorum sensing reporter, luminescence, 6 h; higher luminescence means a stronger effect; most inactives read 0. luminescence at 50 µM unless noted, or EC50 in µM where a hit was titrated. 9,400 tested, under 10 active;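 active means light above mean plus 3 SD and confirmed in a dose series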;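 further: raw light counts without normalisation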
Starred values were filed as active, the others as inactive; [ ] = dose if it differs, or a comment. An excerpt (hit frequency here may not be typical).

SMILES | quorum sensing
CC(=O)O[C@]1(C(C)=O)CC[C@H]2[C@@H]3C=C(Cl)C4=CC(=O)C5CC5[C@]4(C)[C@H]3CC[C@@]21C (stereo partly specified) | 80[10 µg/mL]
CC1Cc2ccccc2N1NC(=O)c1ccc(Cl)c(S(N)(=O)=O)c1 (stereo unspecified) | 200[10 µg/mL]
N#Cc1ccc(C(c2ccc(C#N)cc2)n2cncn2)cc1 | 0[10 µg/mL]
O=C(O)CCC(=O)c1ccc(-c2ccccc2)cc1 | 40[10 µg/mL]
CCCCNc1ccc(C(=O)OCCN(C)C)cc1 | 0[10 µg/mL]
C/C=C/C(=O)N(CC)c1ccccc1C | 0[10 µg/mL]
COc1ccc(C2CNC(=O)C2)cc1OC1CCCC1 (stereo unspecified) | 0[10 µg/mL]
CCN(CC)CCOC(=O)c1ccc(N)cc1 | 40[10 µg/mL]
CC12CC3CC(C)(C1)CC(N)(C3)C2 | 0[10 µg/mL]
CCn1cc(C(=O)O)c(=O)c2cnc(N3CCNCC3)nc21 | 0[10 µg/mL]
CC(=O)CCCCn1c(=O)c2c(ncn2C)n(C)c1=O | 40[10 µg/mL]
O=C(O)c1cccnc1Nc1cccc(C(F)(F)F)c1 | 0[10 µg/mL]

In the list so far, these contain nitrogen in an aromatic ring:
SMILES | quorum sensing
N#Cc1ccc(C(c2ccc(C#N)cc2)n2cncn2)cc1 | 0[10 µg/mL]
CCn1cc(C(=O)O)c(=O)c2cnc(N3CCNCC3)nc21 | 0[10 µg/mL]
CC(=O)CCCCn1c(=O)c2c(ncn2C)n(C)c1=O | 40[10 µg/mL]
O=C(O)c1cccnc1Nc1cccc(C(F)(F)F)c1 | 0[10 µg/mL]

(list continues)
SMILES | quorum sensing
CCCCNc1ccc(C(=O)OCCOCCOCCOCCOCCOCCOCCOCCOCCOC)cc1 | 40[10 µg/mL]
CN(C)CCCC1(c2ccc(F)cc2)OCc2cc(C#N)ccc21 (stereo unspecified) | 0[10 µg/mL]
C1COC(NC(C2CC2)C2CC2)=N1 | 40[10 µg/mL]
C[N+]1(C)CCC(=C(c2ccccc2)c2ccccc2)CC1 | 0[10 µg/mL]
CNCCCN1c2ccccc2CCc2ccccc21 | 0[10 µg/mL]
Cc1ccc(N(CC2=NCCN2)c2cccc(O)c2)cc1 | 240[10 µg/mL]

Arranged by count of non-hydrogen atoms (lowest first): part of the list above.
SMILES | quorum sensing
CNCCCN1c2ccccc2CCc2ccccc21 | 0[10 µg/mL]
C[N+]1(C)CCC(=C(c2ccccc2)c2ccccc2)CC1 | 0[10 µg/mL]
CN(C)CCCC1(c2ccc(F)cc2)OCc2cc(C#N)ccc21 (stereo unspecified) | 0[10 µg/mL]
CCCCNc1ccc(C(=O)OCCOCCOCCOCCOCCOCCOCCOCCOCCOC)cc1 | 40[10 µg/mL]
